RanGTP-Impb inh: inhibitors of RanGTP-importin-beta interaction, primary screen, biochemical, FRET, CFP-Ran, YFP-importin-beta, homogeneous. cell-free CFP-Ran/YFP-importin-beta FRET ratio. 300,000 compounds, 1.1% hits. inhibition, % (test concentration not listed). AID 2216;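 active = most replicates above 15%; inconclusive = exactly half above 15%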;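 also: 0% = DMSO wells and 100% = Ran loaded with GDP instead of GTP; wells of about 40 µL received 100 nL stock; the first replicate is given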
Vif A3G: inhibitors of Vif binding to APOBEC3G peptide, primary screen, biochemical, TR-FRET, GST-Vif 1-94, biotin-A3G peptide, dose response retest (AID 1117319); TR-FRET GST-Vif / biotin-A3G peptide binding; higher % means a stronger effect; test concentration not given here; strong numbers were not always called active; inhibition, %; hits with a dose series show IC50 in µM; 260,000 compounds, 0.57% hits;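 active = above the screen mean plus three standard deviations and confirmed in dose response; inconclusive = results disagree or hit not tested in dose response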;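 also: Vif residues 1-94 fused to GST binding biotinylated APOBEC3G peptide 110-148; 0% = full assay without inhibitor and 100% = GST in place of GST-Vif; retest series ran down from 100 µM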
Calb FLC: C. albicans growth modulation with fluconazole; C. albicans CaCi-2 (fluconazole-resistant clinical isolate) + fluconazole, Alamar Blue growth, 48 h; growth inhibition, % (no concentration beside the values); 300,000 compounds, 0.57% hits; AID 1979;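 active = most replicates above 75%; inconclusive = exactly half above 75%; inactive = most below 75%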;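 also: all wells also contain fluconazole at 8 µg/ml as a sub-toxic cotreatment; 0% = median of DMSO wells and 100% = median of geldanamycin control wells; wells of about 8 µL received 7.5 nL stock; the first replicate is given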
ALR inh: inhibitors of human sulfhydryl oxidase ALR. P55789. 290,000 compounds, 3.8% hits. purified ALR, DTT oxidation, H2O2 HRP-luminol luminescence. AID 485317. inhibition, % (test concentration not listed);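 active = mean and each replicate at 75% or more; inconclusive = only one of the two met; inactive = neither met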;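 also: stock transfer was 7.5 nL into about 7.5 µL; 0% = neutral wells and 100% = wells with inactivated enzyme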
Target sequence (P55789 whole entry, looked up): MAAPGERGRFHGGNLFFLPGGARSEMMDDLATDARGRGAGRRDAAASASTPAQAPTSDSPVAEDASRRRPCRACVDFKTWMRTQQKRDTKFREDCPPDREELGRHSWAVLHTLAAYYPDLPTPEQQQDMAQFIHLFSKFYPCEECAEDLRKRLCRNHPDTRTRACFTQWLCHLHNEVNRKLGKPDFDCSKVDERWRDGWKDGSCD
LANA-H2B inh: blocks KSHV LANA binding to histone H2A/H2B; Q9QR71; cell-free LANA-H2A/H2B peptide, fluorescence polarization; inhibition, % (concentration not given with the values); 320,000 compounds, 0.6% hits; in the data active = inhibition mostly above about 10%, no sharp cut-off; inactive = mostly below about 6.7%;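 also: stock transfer was 7.5 nL into about 10 µL; 0% = median of vehicle wells and 100% = median of positive control wells; one replicate is shown; the record names a cut of 25% in any replicate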
HNF4A DNA FP: change in binding of human HNF4 alpha to DNA; P41235; HNF4a-FITC DNA binding, fluorescence polarization, 1 h; activity change, % at 10 µM; 360,000 compounds, 0.3% hits; in the data active = activity change above about 30%, passing the limit was not always enough;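 also: controls were the assay level and a saturating level of protein; the project sought stronger binding though the title names inhibitors; some compounds called inactive have numbers as strong as hits; positive values seem to mean higher polarization but the record does not say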
Target sequence (P41235 whole entry, looked up): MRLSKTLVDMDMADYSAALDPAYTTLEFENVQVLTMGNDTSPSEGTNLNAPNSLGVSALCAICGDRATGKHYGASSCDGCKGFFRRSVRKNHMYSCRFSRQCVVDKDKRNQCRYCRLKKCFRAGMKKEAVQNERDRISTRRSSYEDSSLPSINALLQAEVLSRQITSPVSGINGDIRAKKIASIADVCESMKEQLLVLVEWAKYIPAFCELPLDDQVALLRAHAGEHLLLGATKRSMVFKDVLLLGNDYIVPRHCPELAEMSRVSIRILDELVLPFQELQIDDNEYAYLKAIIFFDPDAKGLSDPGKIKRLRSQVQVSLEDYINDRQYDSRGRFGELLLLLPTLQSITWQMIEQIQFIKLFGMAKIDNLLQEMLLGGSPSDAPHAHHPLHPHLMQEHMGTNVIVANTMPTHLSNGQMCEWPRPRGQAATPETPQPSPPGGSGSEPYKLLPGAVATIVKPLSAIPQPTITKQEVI
B2AR ag: agonists of human beta-2 adrenergic receptor inducing internalization; P07550; 340,000 compounds, 0.43% hits; response, % (test concentration not listed); Am2.2-beta2AR cells, FAP receptor internalization, flow cytometry; reference of the scale not given here;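 active = response above a set limit, near 3 SD of response in nonfluorescent compounds, cut at about 42% in these data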;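 also: stock transfer was 100 nL into about 11 µL; a reference agonist was the positive control; negative values mostly stem from fluorescent compounds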
Numbers without * were called inactive; ? = inconclusive; · = not tested or not shown.

compound | B2AR ag | Vif A3G | RanGTP-Impb inh | Calb FLC | LANA-H2B inh | HNF4A DNA FP | ALR inh
COc1ccc([N+](=O)[O-])c(OC)c1C(=O)NC(=O)Nc1nc(C)nc(C)n1 | -5 | · | 0.3 | -6 | -2.0 | -1.3 | -3
Cc1cc(Br)cc(C)c1NC(=O)c1ccccc1[N+](=O)[O-] | 15 | 13% | 1.1 | -4 | -1.6 | -2.9 | -6
C/C(CCN1CCc2nc(-c3ccccc3)c(-c3ccccc3)cc2C1)=N\O[C@@H](C)c1cn([C@H](CO)Cc2ccccc2)nn1 | · | 1% | 3.2 | -27 | -4.3 | · | 13
COc1cc(C2C(C(=O)c3ccc(C)o3)=C(O)C(=O)N2c2cc(C)on2)cc(Br)c1O (stereo not given) | 14 | 19% | ? | 40 | 4.6 | -2.2 | 26
CCc1ccc(OCC(=O)Nc2cc(S(=O)(=O)CC)ccc2O)cc1 | 0 | 0% | 7.6 | 32 | -3.3 | 0.9 | 0
O=C(CN(c1ccc(F)cc1)S(=O)(=O)c1ccccc1)NC1CCCCCC1 | 10 | 0% | 0.4 | 1 | 0.7 | -3.4 | 1
COc1cc(OC)cc(C(=O)Nc2ccc(NC(=O)c3ccco3)c(Cl)c2)c1 | 8 | · | 1.9 | 1 | 2.2 | -10 | -11
COc1ccc(S(=O)(=O)NNC(=O)Nc2ccc(F)cc2F)c(OC)c1 | -2 | · | 2.4 | -4 | 1.1 | -1.2 | 21
CC(=O)Nc1nc(C)c(Oc2ccc(C)cc2)c(=O)[nH]1 | 4 | 19% | 3.0 | 17 | -5.1 | 1.1 | 3
CN(C)c1nc(N/N=C/c2c[nH]c3ccccc23)nc(N2CCOCC2)n1 | 16 | 12% | 0.1 | -17 | 2.8 | 2.4 | 59
CCOc1c(O)ccc(/C=C2\SC(=S)NC2=O)c1[N+](=O)[O-] | 7 | · | -2.2 | 26 | -1.5 | 2.0 | 99*
CC(=O)Nc1cccc(-c2nc3ccccc3o2)c1 | 4 | · | 3.0 | 2 | -1.5 | 2.6 | -2
CC1CN(C(=S)Nc2ccc(Cl)cc2)CC(C)O1 (stereo not given) | 0 | · | ? | 1 | -1.5 | 0.8 | -7
Cc1ccc(-c2nnc(/C=C/c3ccccc3)o2)cc1 | -13 | -15% | ? | 16 | -5.5 | 1.9 | -10
Cn1c(=O)c(C(=O)COc2ccc(F)cc2Cl)c(N)n(Cc2ccccc2)c1=O | 4 | ? | -2.2 | -1 | -2.3 | 5.7 | -1
CCN(Cc1ccccc1)c1ccc(/C=N/N2CCOCC2)cc1 | 7 | -1% | · | · | -6.4 | -0.2 | 98*
CC(=O)Nc1ccc(S(=O)(=O)N2CCN(c3nc4ccccc4n3CC(C)C)CC2)cc1 | -6 | 5% | 2.3 | -3 | 0.9 | 1.1 | -12
CN(C)c1ccc(NC(=S)NCC2CCCO2)cc1 (stereo not given) | -5 | 11% | 1.9 | 0 | 0.9 | -2.3 | 99*
CCCCCCNc1c([N+](=O)[O-])c(=O)sc2ccccc12 | 3 | -5% | 147* | 8 | 2.2 | -1.4 | ·
CCOC(=O)N1CCC(N2Cc3cccc(C(=O)Nc4ccc(OCC)cc4)c3C2=O)CC1 | 3 | · | -2.7 | -5 | 8.9 | -4.3 | -2
CC12CC(c3ccccc3O1)N(C(=O)c1ccco1)C(=O)N2c1ccccc1 (stereo not given) | -7 | 9% | -0.4 | 6 | · | 1.6 | ·
CCn1c(CNc2nc3ccccc3n2C(C)C)nc2ccccc21 | 9 | ? | 6.3 | 35 | 1.6 | -1.0 | 98*
CCOC(=O)C(C)n1cnc2c(nnn2Cc2ccc(C)cc2)c1=O (stereo not given) | -3 | -2% | -5.5 | -24 | 2.3 | -3.4 | -6
Cc1ccc(C2C(C(=O)O)c3ccccc3C(=O)N2C)o1 (stereo not given) | -1 | 7% | 0.2 | -6 | -2.0 | 1.3 | -2
CCC(C)NS(=O)(=O)c1ccc(NS(C)(=O)=O)cc1 (stereo not given) | 7 | 6% | -1.7 | -3 | 1.3 | -3.2 | -9
O=C(NCCSc1ccc(Br)cc1)c1ccccc1 | -16 | 2% | -0.1 | -1 | 4.6 | -4.0 | 1
COC(=O)/C=C1\S/C(=N/NC(=O)c2ccccc2)NC1=O | -3 | 10% | -2.0 | 6 | 2.6 | -2.3 | ·
CN(NC(=O)CN1C(=O)c2ccccc2C1=O)C1=NS(=O)(=O)c2ccccc21 | 4 | · | 2.3 | 5 | -1.8 | -0.1 | -6
CC(=O)c1ccc(OC(C)C(=O)NC2CCCCC2C)cc1 (stereo not given) | -10 | -3% | · | · | 5.8 | -2.0 | 1
O=S(=O)(c1ccc2ccccc2c1)N(CC(O)COCc1ccco1)c1ccccc1 (stereo not given) | 4 | 3% | -2.3 | 3 | -11 | 2.3 | -2
Cc1c(Cl)c([N+](=O)[O-])nn1CCCC(=O)Nc1sc2c(c1C(N)=O)CCC(C)C2 (stereo not given) | -6 | 30% | 24* | 8 | -9.8 | 1.9 | -2
COc1ccc(-n2c(=O)[nH]c3cc(C(=O)NCCc4ccc(Cl)cc4)ccc3c2=O)cc1OC | -1 | · | -2.6 | 9 | 1.5 | -3.8 | -28
CCOC(=O)CN(C(=O)CNC(=O)c1cccs1)C(C(=O)NC1CCCC1)c1cccnc1 (stereo not given) | -26 | 20% | 0.8 | 9 | -1.4 | 2.6 | -3
O=C(C=Cc1ccccn1)c1ccccc1 | 21 | -8% | · | · | · | 7.7 | ·
O=C(Nc1ccn(Cc2ccc(Cl)cc2)n1)c1ccc2c(c1)OCO2 | 4 | -2% | -1.5 | -25 | 2.2 | -0.2 | -7
O=C1C2C3c4ccccc4C(c4ccccc43)C2C(=O)N1c1cccnc1 (stereo not given) | 0 | 8% | 7.3 | -8 | -19 | -3.5 | 6
COC(CNC(=O)c1ccc2nc3ccccc3c(=O)n2c1)OC | 3 | -3% | 5.4 | 2 | 0.9 | 3.1 | 3
Cc1ccc(C(=O)COC(=O)c2cc(Cl)nc3ccccc23)cc1C | 1 | -1% | -3.1 | -4 | 1.4 | 1.0 | -3
Cc1ccc(-c2nc3cc(C)ccc3o2)cc1 | -1 | ? | 1.7 | 6 | 18 | 2.9 | -3
CN(CC(=O)Nc1ccc(Cl)c(S(=O)(=O)N2CCOCC2)c1)C(=O)c1cccs1 | -4 | -15% | · | · | 8.3 | 0.6 | -1
C=CCOC(=O)C1=C[C@@H](c2ccccc2)[C@H](CCCO)[C@@H](OCC)O1 | 17 | -2% | -0.2 | 10 | 3.5 | 5.7 | -19
O=C(CC1C(=O)NCCN1Cc1ccc(-c2ccccc2)cc1)NCCOc1cccnc1 (stereo not given) | 0 | 6% | -1.7 | -5 | 3.0 | 1.8 | -8
CC(=O)Nc1ccc(S(=O)(=O)N2CCN=C2SCc2cccnc2)cc1 | 0 | 1% | -1.3 | 8 | -1.8 | -1.2 | 98*
COc1ccc(C2/C=C\CN(C(=O)C3CCCC3)CC(=O)N2Cc2ccc(F)cc2)cc1 (stereo not given) | -2 | · | -1.3 | 7 | -0.6 | -1.0 | ·
O=C(Cc1ccccc1)Nc1ccccc1C(=O)Nc1ccc(C(=O)O)cc1 | -4 | 4% | -0.5 | -5 | -5.4 | 4.6 | 17
S=c1[nH]nc(-c2ccco2)n1/N=C/c1ccc(Br)s1 | -3 | 4% | 0.5 | 39 | 0.8 | 4.2 | 69
O=C(N[C@H]1C/C=C\C[C@H](CC(=O)N(CCO)Cc2ccccc2)C(=O)NC[C@H](c2ccccc2)OC1=O)OCC1c2ccccc2-c2ccccc21 | 4 | · | · | · | 7.0 | 4.8 | -2
CC(C)(C)Cc1nnc(NC(=O)c2ccc([N+](=O)[O-])cc2)s1 | 4 | 5% | 4.0 | -19 | 1.9 | -0.5 | -4
COc1ccc(-c2nnn(CC(=O)NCCc3ccc(OC)c(OC)c3)n2)cc1 | 1 | 14% | 1.3 | -22 | 1.6 | -3.2 | -15
COc1ccc(NC(=O)N2CCCC2C(=O)Nc2ccc(C)cc2C)cc1 (stereo not given) | -3 | · | 1.0 | -6 | 1.7 | 4.7 | -1

The list goes on.
compound | B2AR ag | Vif A3G | RanGTP-Impb inh | Calb FLC | LANA-H2B inh | HNF4A DNA FP | ALR inh
Cc1ccc(S(=O)(=O)N/N=C/c2c(C)nn(-c3ccccc3)c2C)cc1 | 1 | 11% | 2.1 | -3 | -3.2 | 0.1 | ·
CC(=O)Nc1ccc(NC(=O)C2CCC(CNS(=O)(=O)c3cccc4nsnc34)CC2)cc1 (stereo not given) | -6 | -2% | 2.8 | -2 | 3.3 | -2.4 | -10
CC(C)c1ccc(NC(=O)C2CCCN(S(=O)(=O)c3cnc[nH]3)C2)cc1 (stereo not given) | 0 | -5% | 0.6 | 3 | 0.7 | 3.8 | 91*
CCOC(=O)Cn1cc(C=O)c2ccccc21 | 2 | 5% | -4.5 | -2 | -2.1 | -1.0 | ·
CC(C)(C)N(Cc1ccccc1)C(=O)c1ccncc1 | -5 | 1% | -2.3 | 3 | -0.6 | -3.9 | -1
O/N=C/c1ccc(OCc2ccccc2)c(Cl)c1 | 1 | · | ? | -2 | -1.5 | 2.7 | 20
CCCCn1c(=O)c(CC(C)=O)nc2ccccc21 | -8 | 11% | -1.4 | -6 | -0.9 | 4.0 | 2
O=C(c1ccco1)N1CCN(C(c2ccc(F)cc2)c2nnnn2Cc2cccs2)CC1 (stereo not given) | 2 | 23% | -2.5 | 3 | -1.9 | -2.8 | 1
CC1(C)NC(=O)N(CC(O)Cn2nnc3ccccc32)C1=O (stereo not given) | -8 | 5% | -1.0 | -8 | · | 1.2 | ·
CCOc1cc(/C=C(\C#N)C(=O)NCc2cccnc2)ccc1O | -7 | -9% | 2.6 | 11 | -8.9 | -1.0 | 88*
O=S1(=O)NC(=NCc2ccccc2)c2ccccc21 | 2 | 4% | 9.5 | 1 | -2.3 | -0.6 | 1
Cn1c(Cc2ccccc2)nnc1SCC(=O)Nc1ccc(N2CCOCC2)cc1 | 0 | -4% | ? | -4 | 2.9 | 3.8 | ?
COc1ccc(Nc2ccc(S(=O)(=O)N3CCCCC3)cc2[N+](=O)[O-])cc1Cl | -3 | · | -5.4 | 28 | · | 0.2 | ·
CCn1ccc(C(=O)NC2CCCC2)n1 | -3 | · | -0.9 | -6 | 1.8 | 1.1 | -7
Cc1cc(NC(=O)CSc2nnc(CNC(=O)c3cccc(C(F)(F)F)c3)o2)no1 | -10 | · | ? | -4 | -3.9 | 9.1 | 1
Cc1nc(N2CCCCC2)sc1C(=O)c1ccc(SCCO)c([N+](=O)[O-])c1 | 3 | -11% | -3.6 | 3 | -2.8 | 3.2 | -30
Cc1ccc(SCCNC(=O)c2ccc(C)c([N+](=O)[O-])c2)cc1 | -4 | 29% | 0.8 | 19 | -8.7 | 1.6 | -7

One compound at a time (already shown). Values in the order: B2AR ag	Vif A3G	RanGTP-Impb inh	Calb FLC	LANA-H2B inh	HNF4A DNA FP	ALR inh
Cc1cc(NC(=O)CSc2nnc(CNC(=O)c3cccc(C(F)(F)F)c3)o2)no1 is listed as -10	·	?	-4	-3.9	9.1	1
CCCCn1c(=O)c(CC(C)=O)nc2ccccc21 is listed as -8	11%	-1.4	-6	-0.9	4.0	2

From PubChem BioAssay
